Compound activity: PubChem BioAssay, National Center for Advancing Translational Sciences (NCATS)
TSHR agonist: qHTS Assay for Agonists of the Thyroid Stimulating Hormone Receptor | Thyrotropin receptor (Homo sapiens), P16473 | actives 0.48% (n = 73,000) | HEK293-CNG-TSHR cells (CNG channel as cAMP sensor), membrane potential dye, cAMP | Potency, µM (top dose mostly 57.1 µM), inactives show at the highest dose activation, most hits filed as activators | AID 926, 2007; active = well fitted activation curve of enough size with the parental cells flat; inconclusive = any curve in the parental cells; inactive = parental cells flat and receptor cells flat or falling; further: potency means the concentration at half of the fitted maximal effect; % of control where 0% means no effect; weak receptor curves with flat parental cells got no call and are not listed
Target sequence (P16473 whole entry, looked up): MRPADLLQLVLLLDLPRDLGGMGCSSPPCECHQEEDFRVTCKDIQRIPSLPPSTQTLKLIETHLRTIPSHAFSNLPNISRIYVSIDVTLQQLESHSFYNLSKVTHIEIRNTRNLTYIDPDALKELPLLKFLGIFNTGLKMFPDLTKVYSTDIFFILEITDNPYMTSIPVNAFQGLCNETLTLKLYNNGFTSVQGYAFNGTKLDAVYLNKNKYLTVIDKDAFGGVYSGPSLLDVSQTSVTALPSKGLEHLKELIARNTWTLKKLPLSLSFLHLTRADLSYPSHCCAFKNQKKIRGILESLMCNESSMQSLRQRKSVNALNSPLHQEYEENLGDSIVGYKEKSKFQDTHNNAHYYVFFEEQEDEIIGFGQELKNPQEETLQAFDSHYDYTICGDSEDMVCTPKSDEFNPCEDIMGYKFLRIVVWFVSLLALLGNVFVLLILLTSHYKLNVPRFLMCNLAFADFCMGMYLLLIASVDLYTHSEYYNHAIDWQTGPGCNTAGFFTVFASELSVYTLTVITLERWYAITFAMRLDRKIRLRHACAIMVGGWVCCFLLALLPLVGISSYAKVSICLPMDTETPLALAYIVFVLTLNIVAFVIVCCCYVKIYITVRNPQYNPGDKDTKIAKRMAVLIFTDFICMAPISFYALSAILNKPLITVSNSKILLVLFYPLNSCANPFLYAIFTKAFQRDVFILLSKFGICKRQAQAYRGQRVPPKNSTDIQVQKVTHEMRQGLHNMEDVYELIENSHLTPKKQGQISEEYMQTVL
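cAMP rise detected as CNG-channel membrane depolarization by fluorescent dye (emission 590 nm), 30 min after compound, following 60 min dye loading containing 100 uM RO 20-1724 at room temperature. Cells: TSHR/CNG HEK 293, with parental CNG HEK 293 as control.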
A488 autofl: qHTS Assay for Spectroscopic Profiling in A488 Spectral Region; compound autofluorescence, A488 spectral region, dye equivalency; active compounds read high; max dye equivalency, M; actives 0.1% (n = 59,000); active = above 10 nM dye equivalent; inconclusive = 1 to 10 nM; inactive = 1 nM or less; about half of its hits are not listed in these tables;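 further: highest value over a series up to 38 µM; compound alone in buffer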
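Compound autofluorescence was read in 100 mM Tris pH 8.0 after 15 min at room temperature, ex 480 nm/em 540 nm. Intensities were converted to A488 dye-equivalent concentration using an on-plate six-point A488 standard curve.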
AID923: qHTS Assay for Allosteric/Competitive Inhibitors of Caspase-1: Spectroscopic Profiling in AFC Spectral Region. compound fluorescence, AFC spectral region (405/520 nm); almost no hit is shown here. Potency, µM (highest dose often 57.5 µM), without a hit: at the highest dose fluorescence increase, hits mostly activators. actives 1.1% (n = 75,000). AID 923, 2007; active means well fitted activation curve with a large enough effect; inconclusive means small, poorly fitted or top-dose-only effect;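 further: potency means the concentration at half of the fitted maximal effect; 0% is about no effect; scaled to a free AFC standard on each plate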
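Compound autofluorescence profiled at 405 nm ex/520 nm em during kinetic caspase 1 run (50 nM enzyme, 5 uM Ac-WEHD-AFC, HEPES pH 7.5, 10 mM DTT). Titration up to 57 uM; baseline from regression intercept, normalized to AFC standard curve.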
Resorufin autofl: qHTS Assay for Spectroscopic Profiling in Resorufin Spectral Region; actives 0.04% (n = 59,000); Compound fluorescence, resorufin region 547/598 nm, buffer; active compounds read high; max dye-equivalent concentration, M; active = above 10 nM dye equivalent; inconclusive = 1 to 10 nM; inactive = 1 nM or less; a few of its hits are not listed in these tables; further: highest value over a series up to 38 µM
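Tris 100 mM pH 8.0; compound added, 15 min RT; CCD imager read, ex 547 nm/em 598 nm; signal normalized to resorufin standard curve (six concentrations per plate) as dye-equivalent concentration.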
A647 fluor: qHTS Assay for Spectroscopic Profiling in A647 Spectral Region | 59,000 tested, under 10 active | Compound fluorescence, A647 channel (570/671 nm), Tris buffer | AID 592, 2007 | max dye-equivalent concentration, M; active means above 1 µM dye equivalent; inconclusive means 0.1 to 1 µM; inactive means 0.1 µM or less;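 further: values scaled relative to a standard on each plate; highest value over a series up to 38 µM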
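Tris 100 mM pH 8.0; cpd + A647 stds pin-transferred; 15 min RT; CCD imager, ex 570/em 671. Output = A647-equivalent conc. per cpd conc.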
* hit, by the source's call; i = inactive; ? = inconclusive; . = no result given; & = joins results of further samples; [ ] = dose if it differs, or a comment.

The first 3 records as a preview:
SMILES | TSHR agonist | A488 autofl | AID923 | Resorufin autofl | A647 fluor
CCCCNC(=O)OC(C)CNC(=O)Oc1cccc(C)c1 (centres undefined) | 11.8% | . | 0.5% | . | .
c1cncc(-c2cc(NCc3cccs3)ncn2)c1 | 2.4% | i | 0.2% | i | 1e-09
COc1cccc(-c2cc(C(=O)Nc3cnn(Cc4ccccc4C)c3)no2)c1 | ? | i | 0.9% | i | 1.12e-08

All compounds of this part (from the top)
SMILES | TSHR agonist | A488 autofl | AID923 | Resorufin autofl | A647 fluor
CCCCNC(=O)OC(C)CNC(=O)Oc1cccc(C)c1 (centres undefined) | 11.8% | . | 0.5% | . | .
c1cncc(-c2cc(NCc3cccs3)ncn2)c1 | 2.4% | i | 0.2% | i | 1e-09
COc1cccc(-c2cc(C(=O)Nc3cnn(Cc4ccccc4C)c3)no2)c1 | ? | i | 0.9% | i | 1.12e-08
O=C(c1cccc(F)c1)N1CCc2ccccc21 | 17.7%[11.4 µM] | . | 0.4% | . | .
COc1ccc(NC(=O)CSc2nccn2-c2ccccc2)c(OC)c1 | 6.4%[11.4 µM] | i | -0.9% | i | 1e-09
CCOC(=O)c1ccccc1OCc1cc(/C=N/n2cncn2)ccc1OC | . | i | . | i | 1.76e-08
CCN1C(=O)c2ccccc2S(=O)c2ccc(C(=O)N3CCCCCC3)cc21 (centres undefined) | 9.7% | . | 0.8% | . | .
CCOC(=O)CNC(=O)Nc1ccccc1C(=O)OC | . | i | . | i | 3.35e-08
CC[C@](N)(C(=O)O)C(C)C | 1.5%[11.4 µM] | i | 2.0%[11.5 µM] | i | 1e-09
Cc1cc(NCCCN2CCOCC2)n2nc(C)c(-c3ccc(F)cc3)c2n1 | -6.2% | i | -0.5% | i | 3.4e-08
CC(C)Oc1ccc(/C(O)=C2/C(=O)C(=O)N(CCN(C)C)C2c2ccco2)cc1 (centres undefined) | . | i | . | i | 1e-09
Cc1noc(C)c1C(=O)N1CCC[C@@]2(CCN(Cc3ccccc3)C2)C1 | 2.0% | i | -0.2% | i | 1e-09
Cc1noc(NS(=O)(=O)c2ccc(NC(=O)CCC3CCCCC3)cc2)c1C | 1.6% | i | -3.0% | i | 7.4e-09
CCN1CCN(CCCNc2ncnc3nc[nH]c23)CC1 | 2.2% | . | 5.1% | . | .
CCCn1c2ccccc2c2cc(C(=O)O)ccc21 | 11.3% | . | -0.5% | . | .
CC1CC(C)CN(S(=O)(=O)c2ccc3c(c2)oc(=O)n3CC(=O)N2CCOCC2)C1 (centres undefined) | -7.4% | . | 0.0% | . | .
COc1ccc(C2c3sc(=O)[nH]c3SC3C4CCC(C4)C23)cc1 (centres undefined) | 6.7%[11.4 µM] | i | -2.7% | i | 3.21e-08
O=C(CCS(=O)(=O)Cc1ccccc1)NC1CCCCC1 | 1.8% | i | 2.0% | i | 1e-09
O=C(C(c1ccccc1)c1ccccc1)N1CCN(CC(O)COc2ccccc2)CC1 (centres undefined) | 3.4% | i | -0.5% | i | 2.1e-09
COc1ccc(C(OC(=O)c2ccco2)C(=O)NCC2CCCO2)cc1 (centres undefined) | -0.6% | i | 1.0% | i | 1e-09
O=C1CC(Nc2ccc(N3CCOCC3)cc2)C(=O)N1c1cccc(C(F)(F)F)c1 (centres undefined) | -0.9% | . | 0.2% | . | .
CCOC(=O)N1CCN(C(=O)CS(=O)(=O)c2cn(Cc3cccc(F)c3)c3ccccc23)CC1 | 4.0% | i | 0.9% | i | 1e-09
Cn1ncc2c1ncn1nc(CCc3ccccc3)nc21 | . | i | -0.1% | i | 2.7e-09
CC1(C)Cc2c(sc3c2c(=O)n(Cc2ccccc2)c2nncn32)CO1 | -2.3% | i | 0.2% | i | 2.09e-08

Next section; the last 2 above are carried over.
SMILES | TSHR agonist | A488 autofl | AID923 | Resorufin autofl | A647 fluor
Cn1ncc2c1ncn1nc(CCc3ccccc3)nc21 | . | i | -0.1% | i | 2.7e-09
CC1(C)Cc2c(sc3c2c(=O)n(Cc2ccccc2)c2nncn32)CO1 | -2.3% | i | 0.2% | i | 2.09e-08
O=C1CN2C(=Nc3ccc(Cl)cc3C2c2ccccc2)CN1 (centres undefined) | 1.8% | i | -0.5% | i | 1.4e-08
Cc1cc2c(c(=O)n1CCN(C)C)C(c1ccncc1)C(C#N)=C(N)O2 (centres undefined) | 7.3% | i | 0.6% | i | 3.38e-08
COc1ccc2[nH]c(C)c(C(=O)CN3CCOCC3)c2c1 | . | i | . | i | 3.19e-08
Cc1ccc(C)c(N2CCN(CCCNC(=O)Cn3cc4c(n3)CCCCC4)CC2)c1 | 21.6% | . | -1.8% | . | .
CCc1c(C)sc(NC(=O)c2cc(-c3cc(OC)ccc3OC)on2)c1C#N | 13.2% | i | 7.3% | i | 1e-09
O=C(Cc1cn2ccsc2n1)Nc1nc2c(s1)CCCC2 | 0.9% | i | 1.3% | i | 6.9e-09
C(=N\n1cnnc1)/c1ccccn1 | . | i | . | i | 5.6e-08
O=C(c1cc(C(F)(F)F)cc(C(F)(F)F)c1)N1CCC2(CCCN(c3ccncc3)C2)CC1 | ? | i | 0.0% | i | 3.1e-09
CCn1c(=O)c2c(nc(SCc3ccccn3)n2C)n(C)c1=O | -5.1% | i | -0.3% | i | 1.82e-08
COc1ccc2occ(C(=O)c3coc4ccc(O)c(CN(C)C)c34)c2c1 | 8.0% | i | 16.1% | i | 5.33e-08
CC1(C)NC(=O)N(CC(O)COc2ccc(-c3ccccc3)cc2)C1=O (centres undefined) | -7.5% | i | 0.1% | i | 2.95e-08
CCOC(=O)c1cnc(-n2nc(C)cc2C)nc1N1CCOCC1 | 9.8% | i | -0.5% | i | 3.65e-08
N#Cc1ccccc1Sc1ccccc1C(=O)OCc1nnc(-c2ccccc2)o1 | . | i | -0.3% | i | 3.23e-08
COc1ccc(CCNC(=O)COc2ccc(S(=O)(=O)N3CCOCC3)cc2)cc1 | -0.7% | i | -1.5% | i | 1e-09
Nc1nc(Cl)cc(NCCO)n1 | -0.8%[11.4 µM] | i | 7.2%[11.5 µM] | i | 4.31e-08
CCCc1cc(=O)oc2cc(Oc3ncccn3)ccc12 | -0.4% | i | 3.1% | i | 1.8e-09
CCCC(=O)NCCc1cc2ccc(OC)cc2[nH]c1=O | ? | i | 1.4% | i | 1e-09
Cc1ccc(C(=O)c2nocc2C(=O)c2cccs2)cc1 | 3.5% | i | -0.2% | i | 1e-09
O=C(c1ccc(-c2ccccc2)cc1)N1CCCC1 | 17.0% | . | -0.8% | . | .
CC1(C)CC(=O)C(C=Nc2ccncc2)=C(O)C1 | ? | . | 1.4% | . | .
CC(C)Cn1c(=O)c(C(=O)NCc2ccccn2)c(O)c2ccccc21 | ? | i | -0.2% | i | 2.65e-08
CC(C)(C)NC(=O)[C@@H]1C[C@H]2CCCC[C@@H]2CN1C[C@H](O)[C@H](Cc1ccccc1)NC(=O)[C@@H](CC(N)=O)NC(=O)c1ccc2ccccc2n1 | 7.4%[25.6 µM] | i | -2.9%[25.7 µM] | i | 6.7e-09
COc1cccc(NS(=O)(=O)c2ccc(Br)s2)c1 | 15.8% | i | -2.0% | i | 6.9e-09
COc1ccccc1-c1nnc(SCC(=O)Nc2nc(-c3ccccc3)cs2)n1C | ? | i | 0.0% | i | 9.7e-09
COc1ccccc1C(=O)N1CCN(C(=O)c2ccncc2)CC1 | ? | . | 4.3% | . | .
O=C(CNS(=O)(=O)c1cccc(C(F)(F)F)c1)Nc1ccccc1F | 7.2% | i | -4.1% | i | 2.2e-09
O=C(Nc1ccc(Br)cc1F)c1ccc2c(c1)N(Cc1ccccc1)C(=O)CS2=O (centres undefined) | 6.3% | . | -4.4% | . | .
CCc1cccc(NC(=O)c2ccc(Br)o2)c1 | 18.0% | i | -2.0% | i | 1e-09
COc1ccc(OC)c(NC(=O)CCCN2C(=O)C3C4C=CC(C4)C3C2=O)c1 (centres undefined) | -0.7% | i | 1.1% | i | 1.8e-08
CC(C)[C@H](NC(=O)Nc1ccc(Oc2ccccc2)cc1)C(=O)O | -2.8% | i | 0.1% | i | 3.4e-08
CC(C)C(C)(C#N)NC(=O)CSc1nnc(-c2ccncc2)n1Cc1ccccc1 (centres undefined) | 2.6% | i | -1.9% | i | 1e-09
COCCNCC#CCOc1ccc(OC)cc1 | -0.6% | i | -1.4% | i | 2.34e-08
O=C(O)CSc1ccc(N=C=S)cc1 | 4.7%[11.4 µM] | i | -1.7%[11.5 µM] | i | 1e-09
COc1ccc(CC(=O)Nc2ccc(-c3noc(COc4ccccc4C)n3)cc2)cc1 | 2.1% | i | 0.4% | i | 1e-09
COc1ccccc1OCCNC(=O)c1ccccc1C | 10.0% | i | -0.5% | i | 7.93e-08
COCCCN1C(=O)C(=O)/C(=C(/O)c2ccc3c(c2)CC(C)O3)C1c1cccnc1 (centres undefined) | -2.9% | i | 1.1% | i | 2.8e-09
COCCNc1nc2c(c(=O)n(Cc3ccc(OC)cc3)c(=O)n2C)n1C | . | i | . | i | 2.9e-09
CCCN(CCC)c1nc2ccccc2n2c(C)nnc12 | 28.4% | i | -1.1% | i | 3.1e-08
CC(=O)c1c(C)[nH]c(C(=O)N2CCN(c3ncccn3)CC2)c1C | 5.1% | . | -2.9% | . | .
O=C(Oc1cccc(C(=O)N2CCOCC2)c1)c1ccc(Br)cc1 | ? | . | 2.9% | . | .
COC(=O)c1sc(NC(=O)C(C)C)c(C(=O)OC)c1C | . | i | . | i | 1e-09
O=C(NCCNC[C@@H](O)COc1ccc(O)cc1)N1CCOCC1 | 13.4% | i | 0.7% | i | 2e-09&5.08e-08
Nc1nc(SCc2ccc(Cl)cc2Cl)n[nH]1 | -9.3% | i | -2.7% | i | 1e-09
COc1ccc2[nH]cc(CCNc3ccnc(-c4cccnc4)n3)c2c1 | 5.7% | i | 0.7% | i | 4.6e-09
COc1ccccc1-c1nnc2sc(COc3ccc(Cl)cc3)nn12 | ? | i | 0.4% | i | 1.89e-08
O=C(NCCCc1ccccc1)c1ccncc1 | -8.1% | . | -1.0% | . | .
CCc1c(C)[nH]c(=S)c(C#N)c1C | 12.7% | i | 2.1% | i | 4.14e-08
Cc1csc(Sc2nc3c(c(=O)[nH]c(=O)n3C)n2Cc2ccccc2Cl)n1 | -1.0% | i | -0.2% | i | 4.01e-08
CN(C)S(=O)(=O)N(CC(=O)Nc1ccccc1F)c1ccccc1 | 1.2% | i | 0.5% | i | 1e-09
O=C(CCSc1nc(-c2ccco2)cc(C(F)(F)F)n1)N1CCN(c2ccccc2)CC1 | . | i | 1.2% | i | 1e-09
Cc1c2cnn(-c3ccccc3)c(=O)c2c(C)n1CCCC(=O)N1CCN(c2ncccn2)CC1 | -7.0% | . | 4.6% | . | .
CCCCOc1ccc(-c2ncc(C(=O)OCC)c(N)n2)cc1 | 18.2% | i | 2.2% | i | 4.45e-08
O=C(O)C1C2C=CC(C2)C1C(=O)NCCC1=CCCCC1 (centres undefined) | -3.8% | . | -0.6% | . | .
NS(=O)(=O)c1ccc(CCNC(=O)C2CCCCN2S(=O)(=O)c2ccccc2)cc1 (centres undefined) | 1.3% | i | 0.2% | i | 1.49e-08
COc1ccccc1N1CC(C(=O)Nc2cccc(C(=O)O)c2)CC1=O (centres undefined) | -0.6% | i | -2.4% | i | 1.16e-08
Cc1cc(C(=O)N2CCN(C/C=C/c3ccccc3)CC2)cs1 | 5.0% | i | -0.5% | i | 1.54e-08
Cc1ccc(-c2nn3c(C)nnc3s2)cc1NC(=O)c1ccc(-c2cccc(Cl)c2)o1 | ? | i | 3.9% | i | 2.04e-08

This is a subset; rates above refer to the full screens.
